Bead autofluor: compound fluorescence in toxin protease inhibitor counterscreen; compound autofluorescence counterscreen, microsphere flow cytometry; hits give high values; fluorescence intensity (concentration not given with the values); AID 624483; 3.1% of 360,000 active;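 active = at least 3 SD above the mean of all compounds, about 16000 in these data; inconclusive = too few beads counted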;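 note: 100 nL of 1 mM stock went into each well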
PrP UTR inh: inhibition of PrP 5' UTR reporter expression. cell-based PrP 5' UTR mRNA reporter, plate reader. inhibition, % (test concentration not listed). 0.35% of 340,000 active. AID 488862, 2010;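 active = every replicate at 50% or more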;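 note: 0 = median of the neutral control wells; tested in H4 reporter cells; numbers are from one replicate; inactives centre near -14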
Sa RN4220 lethal: growth inhibition of S. aureus RN4220, primary screen, OD600; 16 h; inhibition, % (concentration not given with the values); 0.33% of 330,000 active; AID 1259311, 2017;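 active = z-score of -3 or lower and OD600 up to 0.18 on both plates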;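 note: plate controls were untreated cells for no effect and reference antibiotic for full effect; stock transfer was 100 nL into about 80 µL; one replicate is shown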
BJeLR lethal: MLPCN primary cell-based screen for lethality selective to Ras in HRASV12 cells; 0.17% of 300,000 active; BJeLR (HRASV12) viability, CellTiter-Glo ATP luminescence, 48 h; reference of the scale not given here; inhibition, % (concentration not given with the values);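 active = replicate mean above 50%; inconclusive = above 50% but judged a plate artefact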;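 note: 50 nL library stock added to about 25 µL; numbers are from one replicate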
Mtb hypoxia rep: PubChem AID 1159583. 0.1% of 300,000 active. fluorescence inhibition, % (concentration not given with the values). M. tuberculosis hypoxia-regulated fluorescent reporter, fluorescence;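 active = 35 to 45% if threefold the growth effect, above 45% if 1.5-fold the growth effect; inactive = the rest, general growth blockers included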;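 note: wells of about 50 µL received 100 nL stock; 0% = vehicle wells and 100% = reference inhibitor wells; whole bacteria with a GFP reporter of the hypoxia response; strong numbers were not always called active; many hits fall short of the cut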
Sa ugtP lethal: growth inhibition of ugtP-null S. aureus, primary screen, RN4220 ugtP deletion, OD600; 16 h; some inactives read as strong as hits; growth inhibition, % (test concentration not listed); 0.54% of 330,000 active; AID 1259309, 2017;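 active = z-score under -3 and OD600 up to 0.15 on both plates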;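 note: plate controls were untreated wells for no effect and antibiotic for full effect; wells of about 80 µL received 100 nL stock; the first replicate is given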
Mtb hypoxia rep growth: recorded beside Mtb hypoxia rep, whose call it bears; growth inhibition, %; measured here: M. tuberculosis growth (absorbance);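 0% = vehicle and 100% = reference antibiotic; read after six days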
Numbers without * were called inactive; ? = inconclusive; · = not tested or not shown.

SMILES,Bead autofluor,PrP UTR inh,Sa RN4220 lethal,BJeLR lethal,Mtb hypoxia rep,Mtb hypoxia rep growth,Sa ugtP lethal
COc1ccc(CCN=C2SCC(=O)N2Cc2ccccc2)cc1OC,3652,2,4.1,4,-6,-9,7
COc1ccc(NC(=O)COC(=O)c2ccc(S(=O)(=O)N(C)c3ccccc3OC)cc2)cc1,3597,2,1.4,·,1,12,-6
Cc1onc(-c2ccccc2)c1C(=O)NCc1ccccc1F,4746,1,13,-7,-2,10,5
CCOC(=O)c1cc2c(C)[nH]c(C)c2cc(C(=O)OCC)c1=O,5104,-2,1.5,-1,5,5,-1
COc1ccccc1-c1coc2c(CN3CCN(CCO)CC3)c(O)ccc2c1=O,?,-12,·,0,·,·,·
CC(C)C1N(C(=O)N2CCOCC2)CCN1S(=O)(=O)c1ccccc1 (configuration not stated),4101,-24,1.6,-7,-14,2,3
CC(C)c1ccc(S(=O)(=O)N2CCN(C(=O)c3ccc(N4CCCC4)c([N+](=O)[O-])c3)CC2)cc1,?,-5,-3.2,8,-13,-12,-15
Cc1cc(C)cc(N(C(=O)CNC(=O)c2ccco2)C(C(=O)NC2CCCCC2)c2cccnc2)c1 (configuration not stated),3764,-37,0.2,-3,1,-6,8
Cc1nn(Cc2ccccc2Cl)c2sc(C(=O)NCc3ccc4c(c3)OCO4)cc12,3365,-9,-2.6,-4,-19,13,-13
CCOC(=O)c1c(C)oc2ccc(OCc3cc(C(=O)OC)oc3C)cc12,2434,-23,2.0,-12,·,·,74
CCN1C(=O)C2(SC(NC(C)=O)=NN2C(C)=O)c2cc(C)ccc21 (configuration not stated),12517,-16,1.6,3,9,2,0
COc1ccc(C)cc1NC(=O)CSc1nc2scc(C)c2c(=O)[nH]1,6691,-2,9.6,5,2,-1,-7
Cc1cc(O)c(C=Nc2ccccn2)c(=O)o1,·,·,-15,·,1,4,-1
Cc1coc(C)c1C(=O)CC1(O)C(=O)Nc2cc(Cl)cc(Cl)c21 (configuration not stated),3354,-11,21,2,14,11,-4
O=C(Cc1ccccc1)NNC(=O)Nc1cccc(Cl)c1,3732,-17,-4.3,-5,·,·,-7
COc1ccc(NC(=O)O/N=C/c2c(C)nn(C(C)(C)C)c2C)cc1,3836,-45,·,-4,·,·,·
CCN(C(=O)CCS(=O)(=O)c1cccc2nonc12)c1ccc(C)c(C)c1,5123,-9,3.5,-18,7,13,7
COc1cccc(N(C(=O)CNC(=O)c2ccco2)C(C(=O)NC2CCCCC2)c2ccncc2)c1 (configuration not stated),2699,-34,4.5,-6,7,10,7
O=C(N/N=C/c1cn(-c2ccccc2)nc1-c1ccc2c(c1)OCCO2)c1ccncc1,4079,-91,·,2,·,·,·
Cn1c(C(=O)c2ccccc2)nc2ccccc21,3540,-10,2.9,0,1,3,-1
C/C(CCc1ccccc1)=N\NC(=O)COc1ccccc1C,4377,-31,·,7,·,·,·
CCOc1ccccc1NC(=O)Nc1cccc(NC(C)=O)c1,?,-15,13,4,-2,4,3
O=C(CSc1nnc2scc(-c3ccccc3)n12)Nc1nsc(-c2ccc(Cl)cc2)n1,2910,-1,9.7,1,·,·,12
[O-][n+]1c2cc(C(F)(F)F)ccc2c2n1CCN=C2c1ccc(Cl)cc1,2928,-25,9.9,5,·,·,12
CCN(c1ccccc1)S(=O)(=O)c1ccc2c(c1)CCCN2C(C)=O,5642,-6,5.3,4,5,11,-1
Cc1nc(C)c(C(=O)N/N=C/c2cc(Br)ccc2O)s1,3958,15,·,11,·,·,·
COc1cc(NC(=O)c2cc(OC)c(OC)c(OC)c2)c(OC)cc1NC(=O)CN1CCCCC1,2959,11,3.5,-3,-2,-3,3
Cc1c(C(=O)NN=Cc2cccnc2)sc(N)c1C#N,·,·,2.0,·,-4,0,-3
Nc1nc(C23CC4CCC(CC(C4)C2)C3)cs1,9689,-9,14,13,6,-3,9
COc1cc(CCC(=O)NCc2ccc(S(N)(=O)=O)cc2)cc(OC)c1OC,4200,-25,2.8,2,9,2,4
CC(C)(C)c1cc([N+](=O)[O-])cc(C(C)(C)C)c1O,·,·,88*,37,18,3,93*
O=C(Nc1ccccc1F)NC1CCN(Cc2nnnn2Cc2ccc(F)cc2)CC1,23538*,-30,4.2,-5,1,8,1
COc1ccc(OC)c(S(=O)(=O)N(C)CC(=O)Nc2ccc3c(c2)OCCO3)c1,3099,6,4.4,14,·,·,7
O=C(NCCc1ccccc1)C1CCN(C(=O)c2sccc2-n2cccc2)CC1,6185,-29,3.5,-1,1,8,26
COc1ccc(C)cc1NC(=O)NCc1ccc(F)cc1,2080,-6,1.3,1,8,3,5
COCCNc1nnc(SCC(=O)NC(=O)c2ccccc2)s1,?,-12,0.2,-4,12,9,4
CCOC(=O)c1cc2[nH]c3ccccc3c2[n+](-c2ccc([N+](=O)[O-])cc2)c1C,2152,-19,1.1,2,11,3,12
Cc1ccsc1/C=N\NC(=O)c1ccc2c(c1)OCO2,10749,-61,·,0,·,·,·
COC(=O)c1cccc(NC(=O)c2cccc(OC)c2)c1,3285,-92,0.9,·,6,3,-4
Cc1nn(Cc2c(Cl)cccc2Cl)c(C)c1NC(=O)c1cc(C(C)C)on1,4679,-2,-5.6,9,-2,16,-7
NC(=O)C1CCN(C(=O)C2CCC(=O)N(C3CCCCCC3)C2)CC1 (configuration not stated),5211,-10,1.5,3,-5,-9,6
C/C(=N\NC(=O)c1sccc1C)c1ccncc1,4175,-33,·,7,·,·,·
COc1ccccc1CCC(=O)OCC(=O)N1CCN(S(=O)(=O)c2ccc(C)cc2C)CC1,·,-6,5.1,-6,3,8,12
CCOc1ccccc1NC(=O)c1nc(S(=O)(=O)Cc2ccccc2)ncc1Cl,5718,-15,37,24,13,6,57
Cc1noc(C)c1C(=O)N1CCN(CCc2ccccc2)CC1,24658*,1,-1.0,-4,-2,3,0
Cc1cccc(CN2CCC(C(=O)Nc3ccc(-n4nc(C)cc4C)cc3)CC2)n1,6086,-19,1.0,-4,11,17,1
Cc1nc2c3c(sc2c(=O)[nH]1)NC(=O)CC3c1ccccc1Cl (configuration not stated),4603,-28,3.2,-3,15,4,2
N#CCSc1nccc(/C=C/c2ccccc2)n1,4775,-22,16,-3,10,1,22
O=C1CC(c2ccccc2)CC(O)=C1C=NCCN1CCN(C(=O)Nc2ccccc2)CC1 (configuration not stated),22422*,3,0.3,-2,1,9,-3
COC(=O)Nc1ncc(CN2CCC(c3ccccc3)CC2)s1,9454,-27,2.2,7,5,14,-3
CN(C)C(=O)Cn1cnc2c(cnn2-c2ccccc2Cl)c1=O,15786,-11,-0.7,-8,-25,-3,-2
O=C(CSc1nccn1-c1cccc(Cl)c1)Nc1ccc2c(c1)OCCO2,6280,-30,7.9,6,3,2,14
CC(=O)NCCOc1nc(N(C)C)nc(N2CCCCC2)n1,2673,-21,-1.0,9,-10,9,-3
CCN(CC)S(=O)(=O)c1ccc(S(=O)(=O)N(CC(=O)Nc2ccccc2)CC2CCCO2)cc1 (configuration not stated),17027*,-17,0.5,4,-3,11,-5
COc1ccc(S(=O)(=O)N2CCN=C2SCc2cccnc2)cc1,2608,-2,1.6,0,3,-8,5
CCC(C)(C(=O)NC1CCCC1)N(Cc1cccs1)C(=O)c1ccc2c(c1)OCO2 (configuration not stated),2174,-1,2.8,6,0,-4,-1
COc1ccc(CCNC(=O)COc2ccc(S(=O)(=O)N3CCCC3)cc2)cc1,3589,-9,4.3,-1,6,10,-3
N#Cc1c(N)sc(=S)c2c1CCCCC2,3216,-4,3.7,8,0,4,-7
CC(C)(C)C(=O)Nc1sc2c(c1C#N)CCN(Cc1ccccc1)C2,6175,-17,-12,21,9,11,-5
CCOc1cc(C(=O)Nc2ccccc2N2CCOCC2)ccc1OCC(=O)N1CCCCC1,4374,-3,1.4,-1,-2,9,3

The final three compounds of the part above are carried over, then new ones follow:
SMILES,Bead autofluor,PrP UTR inh,Sa RN4220 lethal,BJeLR lethal,Mtb hypoxia rep,Mtb hypoxia rep growth,Sa ugtP lethal
N#Cc1c(N)sc(=S)c2c1CCCCC2,3216,-4,3.7,8,0,4,-7
CC(C)(C)C(=O)Nc1sc2c(c1C#N)CCN(Cc1ccccc1)C2,6175,-17,-12,21,9,11,-5
CCOc1cc(C(=O)Nc2ccccc2N2CCOCC2)ccc1OCC(=O)N1CCCCC1,4374,-3,1.4,-1,-2,9,3
O=C(NC1CCCCC1)c1nc2c(nnn2Cc2ccccc2Cl)c(=O)[nH]1,8308,-15,10,10,2,-4,-11
Cc1oc(-c2ccc(Cl)cc2)nc1CN1CCC(C(=O)NCCCN2CCCC(C)C2)CC1 (configuration not stated),6580,-11,1.0,4,19,4,3
O=C(Cc1cccc2ccccc12)NN1C(=O)CSC1=S,?,-31,5.9,1,6,14,-2
Cn1nc(CC(=O)Nc2ccc(N3CCN(C(=O)OC(C)(C)C)CC3)cc2)c2ccccc2c1=O,2347,3,0.9,23,6,16,1
CSc1nc(C)cc(Oc2ccc(=O)[nH]n2)n1,4887,-24,2.9,-1,2,4,6
O=C(NCc1nc(-c2ccccc2)cs1)c1ccccc1,4739,-9,16,-9,8,17,2
COc1ccc(NCc2nnc(SCC(=O)NNC(=O)c3ccc(C)cc3)n2C)cc1,2110,-13,2.0,0,9,-3,3
CN(C)S(=O)(=O)c1cccc(NC(=O)COC(=O)c2cc(-c3cccc(Br)c3)nc3ccccc23)c1,2560,-13,5.8,-14,10,-2,6
O=C(CSc1nc2c(cnn2-c2ccc(F)cc2)c(=O)[nH]1)N1CCOCC1,3456,-19,6.3,·,17,7,14
Cc1cnc(C(=O)NNC(=O)c2ccc(Br)cc2)cn1,6313,-12,0.7,-20,1,3,2
O=C(NCC1CCCCC1)c1ccc(Cl)c(S(=O)(=O)N2CCOCC2)c1,4031,-14,-5.3,·,10,20,-2
CC(=O)c1ccc(S(=O)(=O)NCc2ccc(C(=O)NCC(c3ccccc3)N(C)C)cc2)cc1 (configuration not stated),4397,-23,2.9,-12,18,7,8
CN(C)S(=O)(=O)n1cc(/C=C(\NC(=O)c2ccccc2Cl)C(=O)NCCCN2CCOCC2)c2ccccc21,4919,-13,2.3,-2,13,0,3
O=C1C(=O)N(c2cccc(Cl)c2)C(c2ccccc2[N+](=O)[O-])/C1=C(\O)c1ccccc1 (configuration not stated),21218*,-10,8.1,-1,8,11,12
O=C1C[C@@H](c2ccc(O)cc2)Oc2cc(O)cc(O)c21,3930,-2,·,-10,·,·,·

Screens as filed in PubChem.
